# Assay outcomes: PubChem BioAssay, several laboratories
# T cruzi repl = T. cruzi replication inhibition; 1.4% of 300,000 active; AID 1885; T. cruzi beta-gal in NIH3T3, luminescence, 90 h; inhibition, % (no concentration beside the values);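 active = mean inhibition across valid replicates above about 55%, limit read from the data; inconclusive = mean below that limit but half or more replicates reach it; inactive = mean below it, under half of replicates reach it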;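 also: signal also drops with host cell toxicity which is not excluded here; 0% = plate median of DMSO wells and 100% = zero luminescence signal; higher percent means less beta-gal luminescence so fewer parasites; stock transfer was 50 nL into about 50 µL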
# Ecoli rRNA inh = inhibits bacterial ribosomal RNA function over humanized ribosomes; AID 720706; GFP signal change (wild-type ribosome), % (no concentration beside the values); E. coli WT GFP vs humanized-ribosome RFP mutants, fluorescence, 24 h; stronger effect = lower value; DMSO median 0, no signal -100; 1.6% of 350,000 active;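 active = significant combined selectivity score with lowered wild-type GFP, culture density cut under 30%, mutant RFP and density less affected; inactive = any of these conditions unmet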; also: one replicate is shown; some compounds called inactive have numbers as strong as hits
# RanGTP-Imp inh = disruptors of Ran-importin-beta complex formation – biochemical, FRET, CFP-Ran, YFP-importin-beta, homogeneous, primary screen. inhibition, % (test concentration not listed). 1.1% of 300,000 active. cell-free CFP-Ran/YFP-importin-beta FRET ratio. AID 2216;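 active = most replicates above 15%; inconclusive = exactly half above 15%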;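 also: 0% = DMSO wells and 100% = Ran loaded with GDP instead of GTP; wells of about 40 µL received 100 nL stock; the first replicate is given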
# Calb FLC = affects C. albicans growth with fluconazole. 0.57% of 300,000 active. AID 1979. C. albicans CaCi-2 (fluconazole-resistant clinical isolate) + fluconazole, Alamar Blue growth, 48 h. growth inhibition, % (test concentration not listed);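 active = most replicates above 75%; inconclusive = exactly half above 75%; inactive = most below 75%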;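 also: all wells also contain fluconazole at 8 µg/ml as a sub-toxic cotreatment; 0% = median of DMSO wells and 100% = median of geldanamycin control wells; wells of about 8 µL received 7.5 nL stock; the first replicate is given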
# MLL AF4-AF9 inh = MLL-AF4/AF9 protein interaction inhibition; 0.47% of 350,000 active; P42568; inhibition, % at 10 µM; AlphaScreen, biotin-AF4 peptide binding to FLAG-AF9;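 active = every replicate reaching a set inhibition limit, whatever the replicate mean, cut at about 25% in these data; inconclusive = mean inhibition reaches that limit but some replicates miss it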;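 also: 0% = plate neutral control median and 100% = total signal loss; the record names both 10 and 1 µM as test concentration; the first replicate is given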
# Target sequence (P42568 whole entry, looked up): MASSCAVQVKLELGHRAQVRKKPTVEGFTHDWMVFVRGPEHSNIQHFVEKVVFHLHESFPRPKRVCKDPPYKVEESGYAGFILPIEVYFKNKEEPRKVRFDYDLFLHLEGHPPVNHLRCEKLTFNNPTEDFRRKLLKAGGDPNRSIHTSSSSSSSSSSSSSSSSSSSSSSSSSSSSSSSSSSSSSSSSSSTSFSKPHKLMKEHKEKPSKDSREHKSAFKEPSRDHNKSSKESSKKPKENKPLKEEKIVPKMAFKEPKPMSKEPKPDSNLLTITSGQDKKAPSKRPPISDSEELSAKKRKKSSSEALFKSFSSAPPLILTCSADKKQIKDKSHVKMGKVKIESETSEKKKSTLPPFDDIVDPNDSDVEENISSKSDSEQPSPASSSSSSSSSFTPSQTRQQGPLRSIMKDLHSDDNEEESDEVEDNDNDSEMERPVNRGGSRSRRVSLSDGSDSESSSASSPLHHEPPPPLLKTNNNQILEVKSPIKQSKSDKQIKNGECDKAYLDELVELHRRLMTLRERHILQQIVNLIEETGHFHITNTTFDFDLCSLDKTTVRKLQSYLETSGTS
# Beta apoptosis = beta cell apoptosis inhibition | protection from apoptosis, % (concentration not given with the values) | 0.8% of 300,000 active | AID 435005 | INS-1E cytokine-induced death, ATP luminescence, 48 h; percent of positive-control rescue, neutral wells zero;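 active = all replicates at 75% or more, or half of them and the mean; inconclusive = half reach 75% but not the mean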;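 also: 0% = cytokine-treated negative control wells and 100% = positive control rescue; higher means more ATP so stronger rescue from cytokine killing; wells of about 40 µL received 100 nL stock; the first replicate is given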
# Vif TR-FRET = inhibitors of Vif binding to APOBEC3G peptide, primary screen, biochemical, TR-FRET, GST-Vif 1-94, biotin-A3G peptide, dose response retest (AID 1117319) | TR-FRET GST-Vif / biotin-A3G peptide binding; higher % means a stronger effect; test concentration not given here; strong numbers were not always called active | 0.57% of 260,000 active | one-dose inhibition, %; IC50 in µM for titrated hits;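 active = above the screen mean plus three standard deviations and confirmed in dose response; inconclusive = results disagree or hit not tested in dose response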;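 also: Vif residues 1-94 fused to GST binding biotinylated APOBEC3G peptide 110-148; 0% = full assay without inhibitor and 100% = GST in place of GST-Vif; retest series ran down from 100 µM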
# Bfl-1 A1 inh = inhibitors of the anti-apoptotic protein A1, read as caspase activation; 0.066% of 330,000 active; caspase activation, % (concentration not given with the values); MEF A1-2A-BIM cells, Caspase-Glo 3/7 luminescence, 3 h; percent of clofoctol response, vehicle zero;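 active = over half of replicate activation scores above 10%, or exactly half above 10 with the replicate mean above 10; inconclusive = replicate mean below 10 yet half the replicates above 10; inactive = over half of replicates below 10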;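 also: wells of about 30 µL received 50 nL stock; many hits fall short of the cut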
# Ecoli rRNA inh OD600 = recorded beside Ecoli rRNA inh, whose call it bears; OD600 change, %; measured here: OD600 growth;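 optical density of the mix in the first replicate; 0 = DMSO median and -100 = no signal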
# Ecoli rRNA inh RFP = also measured in Ecoli rRNA inh; calls as there; RFP signal change, %; measured here: RFP humanized mutant strains;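 first replicate; 0 = DMSO median and -100 = no signal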
# * marks the source's active call; other numbers are inactive results; u = inconclusive; x = no result given. An excerpt; count on the stated rates, not on these rows.
mol	Ecoli rRNA inh OD600	RanGTP-Imp inh	Vif TR-FRET	Beta apoptosis	Ecoli rRNA inh	Calb FLC	Bfl-1 A1 inh	T cruzi repl	MLL AF4-AF9 inh	Ecoli rRNA inh RFP
Cc1cc(NC(=O)Cn2c(=O)oc3ccc(Cl)cc32)no1	13	-0.2	1%	0	9	-5	-1.7	-9	-0.1	-0.1
S=C(Nc1ccc2nc(-c3ccccn3)c(-c3ccccn3)nc2c1)N1CCCCCC1	-1	-54	2%	-11	-3	-1	0.0	13	-0.7	-2.4
CCOC(=O)Cn1c(COc2ccccc2OC)[n+](C)c2ccccc21	x	6.3	x	1	x	1	0.2	5	-0.6	x
CN(C)c1nc(N(C)C)nc(N(C#N)CN2C(=O)c3ccccc3C2=O)n1	x	1.6	15%	-23	x	-2	0.5	-21	x	x
O=C(CSc1nnnn1-c1cccc(Cl)c1)Nc1ccc2c(c1)CCC2	x	3.1	x	6	x	-3	0.9	9	x	x
Cn1c(=O)c2c(nc(SCc3cccnc3)n2Cc2ccccc2)n(C)c1=O	x	4.9	4%	5	x	27	0.1	-3	x	x
COc1ccccc1N(Cc1ccccc1)S(=O)(=O)c1cccc(C(=O)Nc2ncccc2C)c1	-37	1.7	4%	3	-26	-3	0.5	41	-3.1	2.2
COC(=O)c1ccccc1NC(=O)COc1ccccc1[N+](=O)[O-]	-33	-7.7	-1%	-7	-35	1	-1.1	-2	-0.2	-6.9
Cc1cc(C(=O)NC(=S)Nc2ccccc2N2CCCC2)ccc1[N+](=O)[O-]	-15	-2.2	x	-3	-13	27	0.7	8	2.8	-12
COc1ccc(S(=O)(=O)N2CCOC2CNC(=O)C(=O)NCCc2ccccc2)cc1 (stereo unspecified)	-11	-0.2	x	7	0	-6	0.1	-8	-0.9	-2.9
CN(Cc1cccs1)C(=O)CCCc1c[nH]c2ccccc12	-41	3.3	x	-6	-31	1	1.1	0	5.2	-3.5
O=C1CC(c2cccc(Cl)c2)C(n2cncn2)C(=O)C1C1NCCc2ccccc21 (stereo unspecified)	x	4.8	0%	2	x	-1	0.2	-2	x	x

# Next part
mol	Ecoli rRNA inh OD600	RanGTP-Imp inh	Vif TR-FRET	Beta apoptosis	Ecoli rRNA inh	Calb FLC	Bfl-1 A1 inh	T cruzi repl	MLL AF4-AF9 inh	Ecoli rRNA inh RFP
CC(=O)NCCn1c(SCC(=O)c2ccccc2)nc2ccccc2c1=O	x	-2.0	-8%	0	x	-13	-0.4	-1	x	x
O=[N+]([O-])c1ccc(N/N=C/c2cccc(O)c2O)cc1	-20*	0.6	x	25	-31*	-27	-2.8	40	1.7	-11*
CSc1ccccc1NC(=O)CN(C)CC(=O)Nc1ccccc1N1CCOCC1	-9	0.5	-1%	-4	-15	7	-1.1	5	-1.7	1.7
COC(=O)C1(CCSC)NC(c2ccc(O)c(OC)c2)C2C(=O)N(c3ccc(C)cc3)C(=O)C21 (stereo unspecified)	3	2.1	-2%	-2	18	-6	0.6	18	1.0	0.1
Cc1cccc(/C=N/n2c(C)cc(C)c(C#N)c2=O)c1	x	-1.1	u	-1	x	9	-0.1	0	x	x
Cc1c(C(=O)N2CCCC2)c(S(=O)(=O)Nc2ccccc2)c(C)n1C	6	-5.4	x	-4	10	2	0.6	11	-2.0	0.0
COc1ccc(C(C)(C)C)cc1NC(=O)CCN1C(=O)NC(C)(C)C1=O	5	x	x	-2	11	x	-0.2	x	-11	0.1
CC(=O)CNc1ccc(S(=O)(=O)N/N=C/c2ccccc2)cc1	3	-2.7	-2%	0	3	0	0.4	-5	-14	2.9
Cc1nc(NC(=O)c2c(-c3ccccc3)noc2C)sc1C(=O)N(C)C	2	x	x	4	3	120*	1.4	x	-4.9	-0.3
O=C(CN1CCN(c2ccccn2)CC1)N1c2ccccc2Sc2ccc(C(F)(F)F)cc21	x	-3.4	-1%	13	x	-3	1.7	21	x	x
COCC(=O)Nc1cc(C)cn(Cc2cccc(C(F)(F)F)c2)c1=O	3	-0.7	-10%	-2	3	10	0.5	7	2.6	-0.2
S=C1NCN(CCc2ccccc2)CN1	1	u	1%	-5	2	1	-0.1	-10	-3.7	-1.6

# Whole records, quoted from the list. Screens in order: Ecoli rRNA inh OD600	RanGTP-Imp inh	Vif TR-FRET	Beta apoptosis	Ecoli rRNA inh	Calb FLC	Bfl-1 A1 inh	T cruzi repl	MLL AF4-AF9 inh	Ecoli rRNA inh RFP
# `CSc1ccccc1NC(=O)CN(C)CC(=O)Nc1ccccc1N1CCOCC1` is entered as -9	0.5	-1%	-4	-15	7	-1.1	5	-1.7	1.7
# `Cc1cccc(/C=N/n2c(C)cc(C)c(C#N)c2=O)c1` is entered as x	-1.1	u	-1	x	9	-0.1	0	x	x

# (listing goes on)
mol	Ecoli rRNA inh OD600	RanGTP-Imp inh	Vif TR-FRET	Beta apoptosis	Ecoli rRNA inh	Calb FLC	Bfl-1 A1 inh	T cruzi repl	MLL AF4-AF9 inh	Ecoli rRNA inh RFP
Cc1ccc(S(=O)(=O)Nc2cc3c4c(c2)CCN4C(=O)CC3)cc1	-1	5.3	6%	x	-2	23	-0.4	-4	0.7	0.5
O=C(O)c1cnn(-c2nc(-c3cccc(F)c3)cs2)c1C(F)(F)F	-64	4.4	-1%	-5	-46	11	0.1	-16	1.5	-15
O=C(COC(=O)c1ccc([N+](=O)[O-])o1)Nc1ccc(N2CCOCC2)cc1	5	x	x	-8	8	x	1.7	x	1.8	-0.8
O=C(O)c1ccc(Nc2nc3c(s2)CCCC3)cc1	-3	-0.5	10%	0	-4	-28	-7.4	5	-2.2	-4.7
CC1=NN(C(=O)CCc2ccccc2)C(O)(c2ccncc2)C1 (stereo unspecified)	8	5.8	13%	-10	13	u	-1.5	5	-0.6	1.1
Cc1[nH]c(C)c(S(=O)(=O)N2CCC(C)CC2)c1C(=O)N1CCCC1	3	1.2	-10%	-7	4	-30	-0.4	-10	-3.1	1.5
COc1ccc(N2CCN(C(=O)Cc3cccs3)CC2)cc1	x	1.2	2%	0	x	-2	-0.2	2	x	x
CCN(CC)C(=O)Cn1c(=O)n(-c2ccccc2)c(=O)c2c3c(sc21)CCC3	x	0.4	-3%	-3	x	113*	2.0	5	x	x
CC(Oc1ccccc1)C(=O)N=Nc1c(O)[nH]c2ccc(Br)cc12 (stereo unspecified)	-8	-0.6	2%	-3	2	-5	0.3	6	1.3	-0.1
C[C@H](NC(=O)[C@H]1N2C(=O)c3ccccc3C2SC1(C)C)C(=O)N1CCCCC1 (stereo partly specified)	6	0.5	x	2	5	7	-0.9	0	-12	-1.9
Cc1sc(NC(=O)CS(=O)(=O)c2ccccc2)c(C(N)=O)c1C	6	-1.9	4%	2	5	-2	0.1	-7	-2.0	-1.1
Cc1ccnc(NC(=O)CNC(=O)Cc2cccc3ccccc23)c1	8	3.1	4%	-7	0	x	-0.3	-15	-2.2	2.8

# Carrying on.
mol	Ecoli rRNA inh OD600	RanGTP-Imp inh	Vif TR-FRET	Beta apoptosis	Ecoli rRNA inh	Calb FLC	Bfl-1 A1 inh	T cruzi repl	MLL AF4-AF9 inh	Ecoli rRNA inh RFP
COc1cc2c(cc1OC)CN(c1nc(CN3CCOCC3)nc3sc4c(c13)CCCC4)CC2	x	2.8	x	2	x	10	0.6	1	x	x
Cc1ccc(N2CC(NS(=O)(=O)c3cccnc3)CC2=O)cc1 (stereo unspecified)	2	2.8	-2%	x	12	-1	0.4	-1	0.5	0.6
O=C(NNC(=O)C1CCC1)c1ccccc1	13	x	-4%	1	10	x	1.3	x	1.9	0.4
Cc1ccc(N2CC(C(=O)Nc3cc(Cl)ccc3-n3cncn3)CC2=O)cc1 (stereo unspecified)	-2	-0.9	-4%	-10	-2	-5	0.3	-6	-1.1	-0.6
COc1cc(C(=O)NCCC(c2ccccc2)c2ccccc2)cc(OC)c1OC	-33	-1.1	x	-5	-21	-4	0.8	-5	1.0	-15
CN1C(=O)c2ccccc2Sc2ccc(NC(=O)NC3CC3)cc21	x	0.4	5%	1	x	54	1.4	20	x	x
CCN(C(=S)NC(=O)C1CC1)c1ccccc1	5	u	5%	x	11	-1	0.1	-15	-1.3	5.2
CC(=O)c1c(Nc2ccc3c(c2)OCCO3)oc(C)cc1=O	0	0.7	8%	-1	-1	2	0.0	-6	-36	0.2
Cn1c(=O)c2c(ncn2CC(=O)N/N=C/c2c[nH]c3ccccc23)n(C)c1=O	x	6.1	x	-24	x	-7	0.2	-1	x	x
COc1ccc(C)cc1NC(=O)CN(C)S(=O)(=O)c1cc(C)ccc1OC	x	-0.8	2%	-9	x	11	0.3	-7	x	x
CC(=Nc1ccc2c(c1)nc(CO)n2C)C1=C(O)CC(C)(C)CC1=O	x	7.3	2%	-4	x	32	1.0	6	x	x
CC[n+]1c(-c2ccccc2)csc1Nc1c(C)n(C)n(-c2ccccc2)c1=O	-6	-0.3	7%	-2	-10	1	-0.9	38	7.3	-0.6

# Later entries
mol	Ecoli rRNA inh OD600	RanGTP-Imp inh	Vif TR-FRET	Beta apoptosis	Ecoli rRNA inh	Calb FLC	Bfl-1 A1 inh	T cruzi repl	MLL AF4-AF9 inh	Ecoli rRNA inh RFP
CC(C)N(Cc1ccccc1)C(=O)COC(=O)C1CCCCC1	-17	x	-4%	-6	-12	x	-0.6	x	1.0	3.4
CC(C)S(=O)(=O)C/C(N)=N/OC(=O)c1cc(Cl)cc(Cl)c1	-6	3.4	x	-3	-11	33	1.4	-4	-0.2	3.0
Cc1ccc(-c2nc(SCC(N)=O)c(C#N)c3c2CCCC3)cc1	x	4.7	-23%	13	x	17	-0.8	20	x	x
CC(=O)c1cc2c(cc1N/C(=N/S(=O)(=O)c1ccc(C)cc1)c1ccccc1)OCO2	x	23*	-8%	6	x	-1	0.3	31	x	x
CCOc1ccc(NC(=O)C2CC(=O)N(C)C(=Nc3ccc4c(c3)OCO4)S2)cc1 (stereo unspecified)	10	-1.7	-6%	x	12	-16	0.0	31	-13	0.5
Cc1ccccc1OCC(=O)NNC(=O)c1cc(S(=O)(=O)N(C)C)ccc1N1CCCC1	1	1.2	3%	1	0	2	1.8	-6	-3.6	0.1
Cc1ccc(SCc2cc(=O)n3[nH]c(C)nc3n2)cc1	x	2.0	2%	x	x	-1	-1.3	-7	x	x
O=C(NCc1ccco1)c1cnc2sccn2c1=O	5	-0.5	-3%	-5	3	-2	0.7	-4	1.5	6.3
COc1ccc(Cc2nnc(NC(=O)Nc3ccc(F)cc3)s2)cc1OC	6	1.1	3%	-3	6	-2	-0.5	2	1.3	-0.3
CC1CCCC(C)N1C(=O)COC(=O)c1ccc(Br)o1 (stereo unspecified)	-4	x	x	-2	1	x	-0.1	x	-1.3	1.3
CC(C)(C)NC(=O)C(c1cccs1)N(CC1CCCO1)C(=O)c1ccc(-c2ccccc2)[nH]1 (stereo unspecified)	x	3.6	5%	7	x	-1	u	-5	x	x
